nsP2pro inh – Primary qHTS for inhibitors of NSP2Pro chikungunya virus (CHIKV); AID 1964107, 2024; hit rate 1.1% among 31,000; FRET peptide cleavage, nsP2pro, fluorescence 1 h; Potency, µM (series often up to 24.9 µM), inactives show at the highest dose activity change, negative = inhibition, usual class: inhibitors; Polyprotein P1234 (Chikungunya virus (strain S27-African prototype)), Q8JUX6; active means well fitted inhibition curve with a large enough effect; inconclusive means small, poorly fitted or top-dose-only effect; inactive means no such curve, though single readings can be large or run the other way; further: nearly all actives have a fitted effect of over 60% in size; a reference inhibitor and vehicle were the controls
Active calls of the source: *; i = inactive; ? = inconclusive; & = joins results of further samples; [ ] = dose if it differs, or a comment. On the % scale 0 is the no-effect control and ±100 the full control effect; potency means the concentration at half of the fitted maximal effect.

SMILES	nsP2pro inh
Cc1ccc(-n2ccnc2-c2cc3n(n2)CCNC3)cc1N1CCCC1=O	i
COC(=O)[C@H]1CCCN1C(=O)[C@@H]1C[C@H](NC(=O)Nc2ccc(F)cc2F)CN1C(=O)CSC	-1%
Cc1ccc(CN(C)c2ccc(N3CCN(C)CC3)cc2)cc1	5%
CC(C)(C)CN[C@@H](Cn1cc(F)c(=O)[nH]c1=O)C(=O)O	-7%[39.2 µM]
CC1CCN(c2nc(-c3ccc(C(C)(C)C)cc3)nc3ccccc23)CC1	-11%
C=CCNC(=O)c1cnn2c1CN(C(=O)OCc1ccccc1)CC2	-11%
Cc1ccc(OCCn2c(CCNC(=O)Cc3cccc4ccccc34)nc3ccccc32)cc1	i
COc1ccc(CN(CCN(C)C)c2ncccn2)cc1	-4%
O=C(CN1CCN(C(=O)c2ccco2)CC1)Nc1cc(C(F)(F)F)ccc1Cl	-16%
Cc1ccc(N2CCN(C(=O)C3CCN(S(=O)(=O)c4ccc5c(c4)oc(=O)n5C)CC3)CC2C)cc1 (stereo not drawn)	-17%
C[C@H]1[C@@H]2[C@@H](O)C([C@H](C)C(=O)N3CCC(Cc4ccccc4)CC3)CC[C@@]2(C)CC[C@@H]1NC(=O)c1cnccn1 (stereo partly drawn)	-5%
CC(C)(C)CC(=O)OCC(=O)[C@@]12OC(C)(C)O[C@@H]1C[C@H]1[C@@H]3CCC4=CC(=O)C=C[C@]4(C)[C@@]3(F)[C@@H](O)C[C@@]12C	24%
Cc1cc2c(s1)c1cnn(Cc3ccc(Br)cc3F)c(=O)c1n2C	-4%
CN(C)[C@@H]1C(=O)C(C(N)=O)=C(O)[C@@]2(O)C(=O)C3=C(O)c4c(O)cccc4[C@@](C)(O)[C@H]3C[C@@H]12	6%
COc1cc(/C=C/C(=O)O[C@@H]2C[C@](O)(C(=O)O)C[C@@H](O)[C@H]2O)ccc1O	17%

In a second layout: entries from further up.
smiles | nsP2pro inh
Cc1ccc(-n2ccnc2-c2cc3n(n2)CCNC3)cc1N1CCCC1=O | i
O=C(CN1CCN(C(=O)c2ccco2)CC1)Nc1cc(C(F)(F)F)ccc1Cl | -16%

(cont.)
SMILES	nsP2pro inh
O=C(NCCNC(=O)c1cccc(-c2ccsc2)c1)NC1CCCC1	4%
CCn1c(CN2CCCCC2)nc2cc(NC(=O)c3ccccc3[N+](=O)[O-])ccc21	10%
CC(C)(C)OC(=O)Cc1nnc(C(C(=O)OCc2ccccc2)c2ccccc2)o1 (stereo not drawn)	0%
CC(C)CC(=O)n1cc(C(N)=O)c(=O)cc1C(O)c1ccccc1 (stereo not drawn)	?
CCOC(=O)N1CCN(C(=O)CN(c2cccc(Cl)c2C)S(=O)(=O)c2ccc(C)cc2)CC1	-20%
CNC(=O)c1cc(C2CC2)nc2onc(C3CCCN(C(=O)c4ccccc4OC)C3)c12 (stereo not drawn)	i
O=C(Nc1nc(-c2ccccc2)cs1)c1ccncc1NS(=O)(=O)c1ccc(F)c(F)c1	i
CN(C)CCCCC(=O)Nc1ccc(NC(=S)NC(=O)c2ccc(C(C)(C)C)cc2)cc1	?
C/C(=C/CO)CC[C@H]1[C@]2(C)C[C@H](O)CC(C)(C)[C@H]2CC[C@]1(C)O	?
O=S(=O)(NCc1cccnc1Oc1ccc(F)cc1F)c1cccnc1	i
COCCNc1ccc(-c2nc(-c3ccccn3)no2)cc1[N+](=O)[O-]	-15%
COc1cc(O)c(C(=O)CCc2ccc(O)cc2)c(O[C@@H]2O[C@H](CO)[C@@H](O)[C@H](O)[C@H]2O)c1	73%[activator][10 µM]
O=C1c2ccccc2C(=O)N1c1ncccc1O	-11%
N[C@@H](C=O)[C@@H](O)[C@@H](O)[C@H](O)CO	-28%
CCCS(=O)(=O)N1CC(Oc2ccccc2-c2nc(C3CC3)no2)C1	0%
CC1=C(C(=O)Nc2ccccc2)C(c2ccccc2)n2nc(-c3ccco3)nc2N1 (stereo not drawn)	-40%
C=C(c1ccc(C(=O)O)cc1)c1cc2c(cc1C)C(C)(C)CCC2(C)C	14%&-6%&15%
CCCCCCCCCCCCCCCCCCOCC(O)CO (stereo not drawn)	-1%
Cc1nnc2n1CCC(NS(=O)(=O)c1ccccc1F)CC2 (stereo not drawn)	1%
CC1(CO)CC(O)[C@]2(C(=O)O)CCC34CC3(C=CC3[C@]5(C)C(CC[C@]34C)C(C)(CO)[C@@H](O)[C@H](O)[C@@H]5O)C2C1 (stereo partly drawn)	49%[10 µM]
CC1=C(C(=O)Nc2cc(C)cc(C)c2)C2(CCCCC2)OC1=O	-8%
CCN1CCOC(=O)C1CC(=O)Nc1ccccc1C(F)(F)F (stereo not drawn)	11µM*
Cc1ccc(SCC(=O)Nc2cccc(-c3nc4cc(Cl)ccc4o3)c2C)cc1	-24%
CCCCOc1ccc(OCCCN2CCOCC2)cc1	12%
COc1cccc(Nc2ncc3c(n2)C(C)(C(=O)NC2CCOCC2)CC3)c1 (stereo not drawn)	3%[39.2 µM]
O=C(Nc1nnc(S(=O)(=O)N2CCOCC2)s1)c1ccccc1Cl	-8%
CN(Cc1ccc(F)cc1)C(=O)c1cccc(Cl)c1	-1%[39.2 µM]
CC(=O)NC[C@H]1CCN(Cc2ccc(Cl)cc2F)C[C@H]1N(C)C	-6%
CCN(CCCNC(=O)c1cc2c(=O)[nH]c3ccc(C)cc3c2s1)c1ccc(C)cc1	-5%
CC(=O)O[C@]1(C(C)=O)CC[C@H]2[C@@H]3C[C@H](C)C4=CC(=O)C=C[C@]4(C)[C@@]3(F)[C@@H](O)C[C@@]21C	-6%
COc1ccc(CN2CCNCC2)c(OC)c1OC	12%
Cc1cnc(-c2cccnc2)n1C1CCCN(CC2CCCCC2)C1 (stereo not drawn)	i
O=C(CNC(=O)c1ccccc1)NCc1nnc2ccc(-c3ccccc3)nn12	i
COC(=O)[C@H]1CCCN1C(=O)[C@@H]1[C@@H](NC(=O)Nc2ccc(F)cc2F)CCN1C(=O)c1cccn1C	2%
Cn1c(Cn2ccnc2)nnc1C1CC(NC(=O)c2ccc(CO)o2)C1 (stereo not drawn)	4%
Cc1nc(N(C)C)ncc1C(=O)N1CCN(c2ccccc2C#N)CC1	4%
Cn1nccc1C(=O)N1CC(C(=O)Nc2ccccn2)C2(CCOCC2)C1 (stereo not drawn)	5%
CC(C)(C)OC(=O)N1CCN(c2cccc(NCc3ccc(-c4ccc(C#N)cc4)o3)c2)CC1	-25%
CC(=O)[C@@]1(O)CC[C@H]2[C@@H]3C[C@H](C)C4=CC(=O)CC[C@]4(C)[C@H]3CC[C@@]21C	6%
Cc1cc(NS(=O)(=O)CCNC(=O)Cc2ccc(Cl)c(Cl)c2)no1	5%
Cc1cn2c(=O)c(S(=O)(=O)NCc3ccc(F)cc3)c(C)nc2s1	-19%
COc1cc(OC)c(NC(=O)c2ccc(-n3cnc4cccnc43)cc2)cc1Cl	20%
CN(C)C(=O)c1nc(-c2cccc(C(F)(F)F)c2)c2cnccn12	3%[39.2 µM]
CSCCC(=O)N[C@H]1CN(c2cc(C3CC3)ncn2)C[C@@H]1C1CC1	i
CCN(c1cccc(C)c1)S(=O)(=O)c1ccc2c(c1)NC(=O)CCS2	-6%
CC1(c2cccnc2)N(CC2CC2)C(=O)OC12CCN(C(=O)c1cccc(O)c1)CC2 (stereo not drawn)	1%[39.2 µM]
O=C(CCC1CCN(Cc2ccccc2)CC1)c1ccc2c(c1)NCCCC2	2%
COCCN1C(=O)c2ccccc2C(C(=O)Nc2cc(C)ccn2)C12CCCC2 (stereo not drawn)	4%
COc1cccc(CNC(=O)C2(N3C[C@@H](C)O[C@@H](C)C3)Cc3ccccc3C2)c1	-11%
Cc1ccc(NC(=O)N2CCC(CCNC(=O)CC3CCCC3)CC2)cc1F	-10%
COc1ccc2sc(NC(c3ccc(OC(F)F)cc3)c3ccc4cccnc4c3O)nc2c1 (stereo not drawn)	168%[activator]
COc1cc(NC(=O)COCc2cc(-c3ccc4c(c3)OCO4)on2)c(OC)cc1Cl	-7%
O=C1NC(=NC2CCCCC2)C2(CCN(Cc3ccccc3)CC2)N1c1cc(F)cc(F)c1	2%
CCOc1ccccc1NC(=O)Nc1nnc(N2CCCCCC2)s1	-13%
CC(C)(C)C(=O)OCC(=O)[C@H]1CC[C@H]2[C@@H]3CCC4=CC(=O)CC[C@]4(C)[C@H]3CC[C@]12C	-15%
FC(F)(F)c1cnc(N2CCN(C(=S)Nc3cc(Cl)ccn3)CC2)c(Cl)c1	?
Cc1ccccc1Cn1c(CN2CCCC(C)C2)nc2c1c(=O)n(C)c(=O)n2C (stereo not drawn)	-20%
CC(C)C1=NOC2(CCN(C(=O)c3ccccc3F)CC2)C1	-2%[39.2 µM]
Cc1ccc(NC(=O)CSc2nc3ccc(NC(=O)CCc4ccccc4)cc3s2)c(C)c1	-6%
COc1ccc(-c2nc3sc(CCNC(=O)Cc4ccccc4)c(C)n3n2)cc1	-11%

Next part
SMILES	nsP2pro inh
CC(C)c1nn2c(=O)cc(COC(=O)c3cccc(NC(=O)c4cccs4)c3)nc2s1	-5%
O=C(NC1CCN(Cc2ccccc2)CC1)C1CCCN(c2cnc3nccnc3c2)C1 (stereo not drawn)	4%
CCOCCn1c(N2CCCN(C)CC2)nc2ccccc21	-6%
CC1(C)CC[C@]2(C(=O)O)CC[C@]3(C)C(=CCC4[C@@]5(C)C(=O)C[C@H](O)[C@@](C)(CO)C5CC[C@]43C)[C@@H]2C1 (stereo partly drawn)	-7%[10 µM]
NCCCC[C@H](NC(=O)[C@@H]1CCCN1C(=O)[C@@H]1CSSC[C@H](N)C(=O)N[C@@H](Cc2ccc(O)cc2)C(=O)N[C@@H](Cc2ccccc2)C(=O)N[C@@H](CCC(N)=O)C(=O)N[C@@H](CC(N)=O)C(=O)N1)C(=O)NCC(N)=O	38%[activator]
CNCc1cn(C[C@H]2CC3CCN2C[C@@H]3C(=O)Nc2ccccc2)nn1 (stereo partly drawn)	i
Cc1cc2c(s1)c1cnn(Cc3ccccc3C)c(=O)c1n2C	3%
COc1cccc(NC(=S)N2CCN(c3ccc(C(F)(F)F)cc3[N+](=O)[O-])CC2)n1	-19%
CN[C@@H](C)c1nc(C2CCOCC2)nn1CC1CCCCC1	i
C=C1CN(Cc2ccc(C(=O)Nc3ccccc3N)cc2)C(=O)c2ccccc21	6%
CCN(CC)CCNC(=O)c1ccc2c(=O)n3nc(Nc4ccccc4OC)sc3nc2c1	63%[activator]
C[C@@H](Oc1cc(-n2cnc3ccc(OC4CCN(C)CC4)cc32)sc1C(N)=O)c1ccccc1Cl	90%[activator]
CC(=O)O[C@@H]1C(=O)O[C@@H]2[C@H]1OC(=O)[C@@H]2OC(C)=O	?
COc1ccc(-c2ccc3ccccc3n2)c(OC)c1OC	i
CCCNC(=O)N1[C@H](c2ccc(C)s2)[C@@H](C)C(=O)[C@@H](C)[C@@H]1c1ccc(C)s1	?

A section from further up, as a working copy:
SMILES	nsP2pro inh
CCOCCn1c(N2CCCN(C)CC2)nc2ccccc21	-6%
CC1(C)CC[C@]2(C(=O)O)CC[C@]3(C)C(=CCC4[C@@]5(C)C(=O)C[C@H](O)[C@@](C)(CO)C5CC[C@]43C)[C@@H]2C1 (stereo partly drawn)	-7%[10 µM]
NCCCC[C@H](NC(=O)[C@@H]1CCCN1C(=O)[C@@H]1CSSC[C@H](N)C(=O)N[C@@H](Cc2ccc(O)cc2)C(=O)N[C@@H](Cc2ccccc2)C(=O)N[C@@H](CCC(N)=O)C(=O)N[C@@H](CC(N)=O)C(=O)N1)C(=O)NCC(N)=O	38%[activator]
CNCc1cn(C[C@H]2CC3CCN2C[C@@H]3C(=O)Nc2ccccc2)nn1 (stereo partly drawn)	i

Reformatted: 5 of the compounds above.
canonical_smiles | nsP2pro inh
C=C1CN(Cc2ccc(C(=O)Nc3ccccc3N)cc2)C(=O)c2ccccc21 | 6%
COc1ccc(-c2ccc3ccccc3n2)c(OC)c1OC | i
CNCc1cn(C[C@H]2CC3CCN2C[C@@H]3C(=O)Nc2ccccc2)nn1 (stereo partly drawn) | i
CN[C@@H](C)c1nc(C2CCOCC2)nn1CC1CCCCC1 | i
Cc1cc2c(s1)c1cnn(Cc3ccccc3C)c(=O)c1n2C | 3%

Other results
SMILES	nsP2pro inh
O=C(c1ccc(F)cc1)N1CCCC(C(=O)N2CCCC2c2nc3ccncc3[nH]2)C1 (stereo not drawn)	0%
CN1CCN(C(=O)c2cc3cc(Cl)ccc3[nH]2)CC1	-3%
CCOC(=O)c1c(NC(=O)c2nc(SCC)ncc2Cl)sc(C(C)=O)c1C	-5%
Cc1noc(C2CCCCN2C(=O)c2ccoc2)n1 (stereo not drawn)	-15%
CCCCCCCCn1cc(CC(N)=O)c2cc(-c3cccc(C)c3)ccc21	8%
CN1CCC(N2CC3(CCC2=O)CCN(C(=O)c2ccccn2)CC3)C1 (stereo not drawn)	-28%
O=C(OCCO)c1ccccc1O	15%
CCCSc1ncc(Cl)c(C(=O)Nc2ccc(S(=O)(=O)N(C)c3ccccc3)cc2)n1	33%[activator]
Cc1noc(C)c1S(=O)(=O)N1CCCOCCNC(=O)[C@@H]2CCC[C@@H]21	1%
CC(C)c1cc2c(c(O)c1O[C@@H]1O[C@H](CO)[C@@H](O)[C@H](O)[C@H]1O)CC1(O)CCC(O)C(C)(C)C1CC2 (stereo partly drawn)	196%[activator][10 µM]
C=CC(=O)Nc1ccc2ncnc(Nc3ccc(OCc4cccc(F)c4)c(Cl)c3)c2c1	10%
O=C(Cn1nc(-c2ccc(C(F)(F)F)cc2)ccc1=O)NCCc1ccccc1	-5%
Cc1ccc2c(c1)c(=O)c(C(=O)c1ccccc1)cn2Cc1ccccc1F	-14%
CN(Cc1cccn1C)C(=O)c1ccccc1	?
Oc1ccccc1C1Nc2cccc3cccc(c23)N1	i
O=C(Nc1nc2nc(-c3ccccc3)cc(=O)n2[nH]1)c1ccc(Cl)cc1	9%
COc1ccccc1-n1c(SCC(=O)Nc2nc3ccc(C)cc3s2)nc2c(c1=O)SCC2	-9%[10 µM]
CCOC(=O)c1c(NC(=O)c2nc(SC(C)C)ncc2Cl)sc2c1CCCC2	33%[activator]
O=C(NCc1nnc2n1C(C(=O)N1CCCC1)CC2)c1ccc(Cl)cc1Cl (stereo not drawn)	-11%

An excerpt; rates above refer to the full screens.
